Compound activity from PubChem BioAssay.
RE007 growth inh = qHTS Assay for Inhibitors of the HIV-1 protein Vpr | Potency, µM (top dose mostly 92.2 µM), for the others: at the highest dose activity change, negative = less growth | S. pombe RE007 Vpr strain, BacTiter-Glo ATP luminescence, 24 h; control for the full effect not named in the record | AID 651644, 2012 | 360,000 tested, 0.21% active; active = well fitted falling curve with a large enough effect; inconclusive = small, poorly fitted or top-dose-only effect; inactive = no such curve, though single readings can be large or run the other way;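 also: nearly all actives have a fitted effect of over 50% in size; the assay follows cell death caused by Vpr and the record does not say whether a fall means rescue or toxicity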
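Fission yeast RE007 carrying one integrated HIV-1 vpr copy, seeded at OD 0.01 in PMG+AL medium with 23 nL pinned compound. Grown 24 h at 30 degrees; viability read by BacTiter-Glo luminescence after 5 min.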
2A StopGo = High Throughput Screening for Foot and Mouth Disease Virus Antivirals. human cells with a luciferase reporter of 2A StopGo recoding; control for the full effect not named in the record. Potency, µM (top dose mostly 57.9 µM), for inactives: top-dose signal change, negative = less light. 410,000 tested, 1.2% active; active = well fitted falling curve with a large enough effect; inconclusive = small, poorly fitted or top-dose-only effect; inactive = no such curve, though single readings can be large or run the other way; tested in HEK293T cells; also: nearly all actives have a fitted effect of over 45% in size; luciferase light after 4 h
An asterisk follows results filed as active; ? = inconclusive; [ ] = another dose, or the depositor's remark. % is scaled to controls: 0 for no effect and ±100 for the full control effect; potency is read from the fitted curve at half-maximal effect. The list is partial (hit frequency here may not be typical).

Molecule,RE007 growth inh,2A StopGo
CCS(=O)(=O)c1nc(S(=O)(=O)c2ccc(C)cc2)c(N2CCCCCC2)s1,15%,51%[activator]
COC(=O)[C@@]1(Sc2ccc(C)cc2)CC(=O)N(P(=O)(OC)OC)[C@@H]1c1ccccc1,1%,-22%
COc1ccc(-c2cc(C(=O)N3CCCCCC3)c3ccccc3n2)cc1OC,1%,-17%
O=C(N/N=C/c1c(O)ccc2ccccc12)C(=O)N1CCCC1,0%,-12%
COc1c(C)cc(C(O)c2ncc(-c3ccc4ccccc4c3)[nH]2)cc1C (configuration not stated),-10%,-17%
COc1ccccc1C(=O)NC1CC2CCCC(C1)N2Cc1ccccc1 (configuration not stated),13%,-10%
O=C(Nc1ccccc1)C1Cc2c(-c3ccco3)ccnc2O1 (configuration not stated),1%[18.4 µM],-19%
CCc1nc2c(OCc3ccc(Cl)cc3Cl)cccn2c1N(C)C(C)=O,-20%,?
COC(=O)c1ccc(CNc2ccc(C(C)=O)cc2)cc1,3%,14%
O=C(Nc1ccn(CCCNCCCN2CCCC2=O)c(=O)n1)OCc1ccccc1,-25%,-22%
COC(=O)C1=C(C)NC(C)=C(C(=O)OC)C1C(=O)OCC(=O)NC1CCCCC1C (configuration not stated),-18%,-6%
O=C(NCc1ccc(F)c(F)c1)c1ccc(-c2ccc(F)c(F)c2)c2ccoc12,-3%,-21%
O=C(CSc1nc2ccc(F)cc2c(=O)n1-c1ccccc1)Nc1ccc2c(c1)CCC2,20%,2%
CCOC(=O)C[C@H]1c2ccc(C(F)(F)F)cc2S(=O)(=O)N1C(C)C,-9%,51%[activator]
CC1=C(C(=O)N(C(C)C)C(C)C)CC(CC(=O)NC2CCCC2)C(=O)N1Cc1ccc(F)cc1 (configuration not stated),6%,4%
Cc1nnc(SCC(=O)Nc2cc(S(=O)(=O)N3CCOCC3)ccc2N2CCCC2)s1,11%,-8%
COC(=O)C[C@@H]1C[C@H]2c3cc(NS(=O)(=O)c4ccccc4)ccc3O[C@H]2[C@@H](CO)O1,-25%,12%
CC(=O)NC(c1ccc(F)c(F)c1)c1nc(-c2cccs2)cs1 (configuration not stated),2%,-19%
Cc1cccc(CNC(=O)Nc2nnc([C@H]3C[C@H](O)[C@@H](CO)O3)s2)c1,15%,-15%
Cc1noc(C)c1NC(=O)Nc1ccc2c(c1)C(=O)N([C@H](C)CO)C[C@H](C)[C@H](CN(C)C(=O)NC1CCCCC1)OCCCC[C@@H](C)O2,-2%,-22%
COc1cc(-c2ccc(N3C(c4ccsc4)=Cc4ccccc4C3CC(C)=O)cc2)cc(OC)c1OC (configuration not stated),-9%,-26%
C[C@H]1CCCCO[C@@H](CN(C)S(=O)(=O)c2ccc(F)cc2)[C@@H](C)CN([C@@H](C)CO)C(=O)c2cc(NC(=O)Nc3ccc4c(c3)OCO4)ccc2O1,30%,-15%
Cn1c(=O)c2c(nc(SCCN3CCOCC3)n2Cc2ccc(Cl)cc2)n(C)c1=O,3%,0%
O=C1NC(Cc2ccc(O)cc2)c2nc3ccc(F)cc3c(=O)n2-c2cc(Cl)ccc21 (configuration not stated),6%,-23%
CCCCCCCCN1C(=O)[C@H](CC(=O)NCc2cccc(C(F)(F)F)c2)C[C@@]2(C(=O)OCC)CCCC=C12,-2%,?

Entries of single compounds from above. Order of values: RE007 growth inh, 2A StopGo
Cn1c(=O)c2c(nc(SCCN3CCOCC3)n2Cc2ccc(Cl)cc2)n(C)c1=O is entered as 3%, 0%
CC(=O)NC(c1ccc(F)c(F)c1)c1nc(-c2cccs2)cs1 (configuration not stated) is entered as 2%, -19%
CCc1nc2c(OCc3ccc(Cl)cc3Cl)cccn2c1N(C)C(C)=O is entered as -20%, ?
CCS(=O)(=O)c1nc(S(=O)(=O)c2ccc(C)cc2)c(N2CCCCCC2)s1 is entered as 15%, 51%[activator]
COc1ccccc1C(=O)NC1CC2CCCC(C1)N2Cc1ccccc1 (configuration not stated) is entered as 13%, -10%

Next structures
Molecule,RE007 growth inh,2A StopGo
CC(N)c1csc(Nc2ccc(C(=O)c3ccccc3)cc2)n1 (configuration not stated),-6%,0%
CCc1nc2c(OCc3cc(Cl)cc(Cl)c3)cccn2c1N(C=O)Cc1ccc(OC)cc1,?,-3%
CCc1nc2ccc(C(=O)NCCN3CCOCC3)cn2c1N(CC)CCOC,-17%,-26%
CN1OC[C@@H]2CN(Cc3cc(Cl)cc(Cl)c3)[C@H](c3cccc(Br)c3)C[C@@H]21,-19%,?
CC(C)NC(=O)C1(C)CCN1C(=O)c1cccc(Cl)c1 (configuration not stated),0%,-18%
Cc1ccc(C(O)c2ncc(-c3ccc(F)cc3)[nH]2)cc1F (configuration not stated),-30%,19%
C[C@H](O)[C@@H]1C(=O)N2CCc3c([nH]c4ccccc34)[C@@H]2C[C@@H]1N(C)S(=O)(=O)c1ccccc1,-2%,-17%
O=C(NCc1cccs1)c1ccc(Cl)c(S(=O)(=O)N2CCOCC2)c1,15%,32%[activator]
COc1ccc2c(c1)O[C@H]1c3ccc(O)cc3OC[C@@H]21,0%,-4%
O=C(Nc1ccc(F)cc1)C(CCc1ccccc1)N1CCN(c2ccncc2)CC1 (configuration not stated),-29%,-12%
CC(=O)NCCNC(=O)C1Cc2c(-c3ccc4c(c3)OCO4)ccnc2O1 (configuration not stated),3%,-2%
COc1ccccc1CNS(=O)(=O)CCNC1CC1,-3%,-18%
CN(Cc1cn(Cc2ccc(Cl)cc2)nn1)C1CN(Cc2cn(Cc3ccc(Cl)cc3)nn2)S(=O)(=O)C1 (configuration not stated),-13%,?
OC[C@@H]1CN(Cc2ccc(-c3ccccc3)cc2)C[C@H](n2cnc3c(N4CCCC4)ncnc32)O1,-14%,-30%
CCCCOc1ccc(S(=O)(=O)NC(=O)C2(C)CCN2C(=O)Cc2cccs2)cc1 (configuration not stated),10%,5%
Cc1ccc(OC(=O)N(C)C[C@@H]2OCc3cnnn3CCCC(=O)N([C@@H](C)CO)C[C@@H]2C)cc1,1%,-7%
Cc1nnc(SCCN2C(=O)c3ccccc3C2=O)nc1C,-7%,13%
C1=C\CCC2(OCCO2)C2(CC/1)OCCO2,7%,-3%
CNC[C@H]1OCCCC[C@H](C)Oc2ccc(NC(=O)CCCN(C)C)cc2C(=O)N([C@H](C)CO)C[C@@H]1C,-10%,-12%
COc1ccc(-c2ccc(C(=O)Nc3cccc(NS(C)(=O)=O)c3)c3occc23)c(C)c1,2%[18.4 µM],?
CC1(C(=O)NS(=O)(=O)c2cccc(Cl)c2)CCN1C(=O)COc1ccc(Cl)cc1 (configuration not stated),1%[18.4 µM],48%[activator]
COc1ccc(-c2cc(C(=O)N(C)CC(=O)Nc3cccc(F)c3)c3ccccc3n2)cc1OC,3%,?
COC(=O)c1cccc(NC(=O)c2cccc(-n3cnnn3)c2)c1,-1%,-12%
CSCCC(C(=O)NC(C)(C)C)n1c(-c2ccc(C)cc2)nc2ccccc21 (configuration not stated),-7%,6%
O=C(Nc1cccnc1)C1Cc2c(-c3ccco3)ccnc2O1 (configuration not stated),-8%[18.4 µM],-14%

The last two compounds of the part before come first, to join the parts:
Molecule,RE007 growth inh,2A StopGo
CSCCC(C(=O)NC(C)(C)C)n1c(-c2ccc(C)cc2)nc2ccccc21 (configuration not stated),-7%,6%
O=C(Nc1cccnc1)C1Cc2c(-c3ccco3)ccnc2O1 (configuration not stated),-8%[18.4 µM],-14%
COc1ccc(NC(=O)c2sc3nc(C)cc(C)c3c2N)c(OC)c1,-10%,6%
CN(C)CCNC(=O)c1cccc(-c2cnc3c(NC=O)cc(-c4cccc(C(F)(F)F)c4)cn23)c1,4%[18.4 µM],-28%
Cc1cnc(CN(C)C(=O)C2CCC(=O)N(CCc3ccc(Cl)cc3)C2)[nH]1 (configuration not stated),-5%,-9%
O=C(c1ccc(Cl)cc1)N1CCC2CC1c1cc(-c3ccccc3)ccc12 (configuration not stated),-13%,0%
C/C(=N\NC(=O)c1ccncc1)c1c(O)[nH]c(=O)[nH]c1=O,11%,-5%
CCCc1nc2ccccc2n1C(C)C(=O)NC(C)(C)C (configuration not stated),-25%,14%
COc1cccc(C(C)(O)c2nc(-c3ccc(F)cc3OC)cs2)c1 (configuration not stated),20%,-21%
CCOC(=O)N1CCN(C(=O)C[C@@H]2C[C@@]3(C(=O)OCC)CCC=C3N(Cc3cccc4ccccc34)C2=O)CC1,2%,-20%
CCc1c(O)nc(SCC(=O)Nc2ccccc2)n(-c2ccccc2C)c1=O,3%,-8%
CN(C(=O)c1cccc(NC(=O)Cc2ccc(NC(=O)C3CCCN(C(=O)c4ccccc4)C3)cc2)c1)C1CCCC1 (configuration not stated),-6%,-28%
COc1ccc(NC(=O)c2ccc(NC(=O)CN3CCN(c4ccccc4O)CC3)cc2)cc1,-11%,0%
CCCCNC(=O)C1(C)CCN1C(=O)c1ccc(OC)c(C(F)(F)F)c1 (configuration not stated),4%,-7%
CC1(C(=O)NS(=O)(=O)c2ccccc2Cl)CCN1C(=O)CCc1ccc(Cl)cc1Cl (configuration not stated),13%,-17%
COc1ccc(-c2ccc3c(c2)C2CC3CCN2S(=O)(=O)c2ccccc2C)cc1 (configuration not stated),0%,?
CCOC(=O)N1CCN(C(=O)C[C@@H]2C[C@@]3(C(=O)OC)CCCCC=C3N(Cc3ccco3)C2=O)CC1,-1%,-21%
Cc1nn(-c2ccncc2)c2c1C(=O)CC(C)(C)C2Br (configuration not stated),0%,28%
O=C(NCc1cccnc1)c1cc(C2CCCCN2C(=O)c2cccs2)on1 (configuration not stated),0%,-20%
CCNC(=O)C1CCCN(C(=O)c2cc(C)oc2C)CC1 (configuration not stated),4%,-10%
CCOC(=O)c1cnc2nc(SCc3ccccc3Cl)[nH]n2c1=O,-6%,-18%
O=C(NCc1ccccc1)C(c1cccc2ccccc12)n1c(=O)c(-c2cc3ccccc3[nH]2)nc2ccccc21 (configuration not stated),-11%,-11%
O=[N+]([O-])c1cccc(COc2ccccc2CN2CCOCC2)c1,-14%,?
NS(=O)(=O)c1ccc(CCNc2ccn3nc(-c4ccccc4)cc3n2)cc1,4%,-12%
CC1(Cc2c(Cl)cccc2Cl)C(=O)Nc2cc(-c3ccccc3Cl)ccc21 (configuration not stated),-14%,-22%
CCCCn1nnnc1C(CC)N1CCC2(CC1)C(=O)NCN2c1ccccc1 (configuration not stated),10%,-11%
CCn1nnnc1-c1ccc(OC)c(S(=O)(=O)Nc2ccccc2OC)c1,6%,29%
COC(=O)C1(CC2CC(c3ccccc3)=NO2)CCN(C(=O)OC(C)(C)C)CC1 (configuration not stated),11%,?
CN(C)Cc1cc(OCc2ccccc2)cc(CN(C)C)c1O,-12%,-2%
O=C(Nc1ccc(F)c(Cl)c1)c1csc([C@@H]2C[C@H](O)[C@@H](CO)O2)n1,-3%[18.4 µM],16%
CCOC(=O)c1ccc(S(=O)(=O)N2CCN(C(=O)c3cccc(S(=O)(=O)N4CC(C)OC(C)C4)c3)CC2)cc1 (configuration not stated),-7%,?
COc1ccc(C(=O)N/C(=C/c2cccs2)C(=O)N2CCN(C)CC2)cc1,0%,8%
CC1(C(=O)NS(=O)(=O)C2CC2)CCCN(C(=O)c2cccc(Cl)c2)C1 (configuration not stated),1%,-7%
CC1(C(=O)NCCC(F)(F)F)Cc2c(-c3cccc(C(F)(F)F)c3)ccnc2O1 (configuration not stated),2%[18.4 µM],22%
CC(C)(C)NC(=O)C(c1ccccc1F)n1c(=O)c(-c2cc3ccccc3[nH]2)nc2ccccc21 (configuration not stated),0%,16%
CC(CC(=O)Nc1ccc2c(c1)c(=O)n(C)n2Cc1ccc(F)cc1)c1ccccc1 (configuration not stated),4%,-31%
COc1cc2c(cc1OC)CN(C(=O)c1cc(COc3ccccc3SC)on1)CC2,19%,?
O=C(NC1CC1)c1ccc(-c2ccc3nccn3c2)cc1,-5%[18.4 µM],-1%
COc1ccc(-c2nc3c4ccccc4ccn3c2Cc2ccccc2)cc1OC,-23%,30%[activator]
NC(Cc1ccc(Cl)cc1)c1csc(Nc2ccc(C(=O)NCCCO)cn2)n1 (configuration not stated),-9%,-17%
CCN(CC(=O)Nc1ccc(NC(C)=O)cc1)C(=O)c1ccc(N(C)S(=O)(=O)c2ccc(C)cc2)cc1,-13%,-6%
COc1ccc(CN2C(=O)C(CC(=O)NC3CCCCC3)CC(C(=O)N(C(C)C)C(C)C)=C2C)cc1 (configuration not stated),-3%,0%
COc1ccc(NC(=O)C2Cc3c(-c4ccc5c(c4)OCO5)ccnc3O2)cn1 (configuration not stated),-18%[18.4 µM],0%
N#Cc1ccc(NN=Nc2ccccc2C#N)cc1,-5%,27%
CCOC(=O)CNC(=O)N1Cc2ccccc2-n2nncc2C1,4%,-2%
